Compound activity (PubChem)
RN4220 kill = S. aureus RN4220 growth inhibition; OD600, 16 h; 0.33% of 330,000 active; inhibition, % (concentration not given with the values);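 active = z-score of -3 or lower and OD600 up to 0.18 on both plates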;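 note: plate controls were untreated cells for no effect and reference antibiotic for full effect; stock transfer was 100 nL into about 80 µL; one replicate is shown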
BJeLR lethal = kills HRASV12-expressing BJeLR cells; BJeLR (HRASV12) viability, CellTiter-Glo ATP luminescence, 48 h; reference of the scale not given here; inhibition, % (no concentration beside the values); 0.17% of 300,000 active; AID 1554;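 active = replicate mean above 50%; inconclusive = above 50% but judged a plate artefact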;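 note: 50 nL library stock added to about 25 µL; numbers are from one replicate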
PrP 5UTR inh = inhibition of PrP 5' UTR reporter expression. 0.35% of 340,000 active. inhibition, % (no concentration beside the values). AID 488862. cell-based PrP 5' UTR mRNA reporter, plate reader;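 active = every replicate at 50% or more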;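 note: 0 = median of the neutral control wells; tested in H4 reporter cells; numbers are from one replicate; inactives centre near -14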
Mtb hypoxia inh = reduces hypoxia-regulated biosensor signal in M. tuberculosis | M. tuberculosis hypoxia-regulated fluorescent reporter, fluorescence | fluorescence inhibition, % (no concentration beside the values) | 0.1% of 300,000 active | AID 1159583;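 active = 35 to 45% if threefold the growth effect, above 45% if 1.5-fold the growth effect; inactive = the rest, general growth blockers included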;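 note: wells of about 50 µL received 100 nL stock; 0% = vehicle wells and 100% = reference inhibitor wells; whole bacteria with a GFP reporter of the hypoxia response; strong numbers were not always called active; many hits fall short of the cut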
Sa ugtP lethal = kills S. aureus RN4220 lacking UgtP; S. aureus RN4220 ugtP deletion, OD600 growth, 16 h; some inactives read as strong as hits; growth inhibition, % (test concentration not listed); 0.54% of 330,000 active; AID 1259309;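 active = z-score under -3 and OD600 up to 0.15 on both plates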;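 note: plate controls were untreated wells for no effect and antibiotic for full effect; wells of about 80 µL received 100 nL stock; the first replicate is given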
Bead autofluor = compound fluorescence in toxin protease inhibitor counterscreen; fluorescence intensity (no concentration beside the values); 3.1% of 360,000 active; AID 624483; compound autofluorescence counterscreen, microsphere flow cytometry; stronger effect = higher value;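 active = at least 3 SD above the mean of all compounds, about 16000 in these data; inconclusive = too few beads counted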;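 note: 100 nL of 1 mM stock went into each well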
Mtb hypoxia inh growth = also measured in Mtb hypoxia inh; calls as there; growth inhibition, %; measured here: M. tuberculosis growth (absorbance);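 0% = vehicle and 100% = reference antibiotic; read after six days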
* hit, by the source's call; ? = inconclusive; · = no result given.

SMILES	RN4220 kill	BJeLR lethal	PrP 5UTR inh	Mtb hypoxia inh	Mtb hypoxia inh growth	Sa ugtP lethal	Bead autofluor
CCN(CC)Cc1c(C(=O)NN=Cc2ccc(C)o2)nnn1-c1nonc1N	5.1	·	·	19	9	6	·
O=C(NCc1nnc(SCC(=O)N2CCCc3ccccc32)o1)c1ccccc1F	2.1	-6	-4	-3	2	7	2108
CN1CCc2c(OCC(=O)N3CCCc4ccccc43)cccc2C1=O	1.2	1	-30	9	4	3	3381
Cc1ccc(NC(=O)CN2CCN(c3ccccn3)CC2)cc1S(=O)(=O)N(C)C	-0.1	-2	-9	-12	14	0	3489
O=C(Nc1ccccn1)[C@@H]1CCC(=O)N1C(=O)OCc1ccccc1	·	-4	-13	·	·	·	2474
Cc1cc2n(n1)SC(Nc1ccc(F)c(Cl)c1)N2 (stereo not given)	-0.2	-30	-30	-5	-6	-10	20632*
CCOC(=O)N1CCN(c2c(NCc3cccs3)c(=O)c2=O)CC1	0.0	2	-11	1	5	4	5404
CS(=O)(=O)Nc1ccccc1C(=O)Nc1ccc2c(c1)OCCO2	4.9	3	-1	4	7	-4	5148
CCOc1cc(N2CCOCC2)c(OCC)cc1NC(=O)COc1ccccc1[N+](=O)[O-]	8.0	-8	-3	-2	-2	-2	4480
COc1ccc(-c2noc(CNC(=O)c3ccoc3C)n2)cc1OC	4.3	-4	-11	14	9	6	3778
CC(C)N(C(=O)CSc1nnc(Cc2ccc3c(c2)OCO3)n1C)C(C)C	1.6	-3	-13	-7	1	5	4669
c1ccc(-c2cc(N3CCCCC3)nc(-c3ccccc3)n2)cc1	-8.3	-4	-3	·	·	2	4065
Cc1ccc(C(=O)Oc2ccc([N+](=O)[O-])cc2)cc1S(=O)(=O)N1CCCCCC1	13	-2	-27	0	0	-8	10057
O=C(Nc1ccc(OCc2ccccc2)cc1)c1cccnc1	6.5	-13	-42	18	11	8	7654
CCCCOc1ccc(C(=O)N/C(=C/C=C/c2ccccc2)C(=O)NCCO)cc1	3.1	0	-14	-10	2	0	2024
CC(=O)N1CCOc2ccc(S(=O)(=O)N3C(C)CCCC3C)cc21 (stereo not given)	-0.9	5	-15	-6	-2	-7	4870
CCNC(=S)NN=C(C)c1cc2ccccc2o1	5.0	·	·	-10	0	-2	·
Cc1c(C(=O)O)sc(S(=O)(=O)N2CCN(C(=O)Cc3ccc(Cl)cc3)CC2)c1C(=O)O	6.3	·	-21	-1	4	8	3992
CCOC(=O)C1CCN(C(=O)c2cc3cc4ccc(C)cc4nc3o2)CC1	3.7	-1	-65	7	5	2	6337
COc1ccc(C=NNC(=O)Cn2nc(C)c([N+](=O)[O-])c2C)cc1	6.4	·	·	5	15	2	·
COc1cc(OC)cc(C(=O)NCCOC23CC4CC(CC(C4)C2)C3)c1	4.8	-1	-10	0	13	1	4064
CC(C)CNS(=O)(=O)c1ccccc1C(=O)N1CCCCC1	3.7	-3	-29	4	8	7	5320
Cc1ccc(S(=O)(=O)/N=C(/Nc2ccc3[nH]c(=O)[nH]c3c2)c2ccccc2)cc1	1.7	-13	-8	-19	-1	0	1939
O=C(CSCc1ccccc1)NCCCN1CCOCC1	7.2	6	-5	9	1	-5	2007
CCn1c(SCC(=O)N2CCOCC2)nc2ccccc21	3.2	6	0	3	-2	-7	4612
CC(C)NS(=O)(=O)c1ccc(NC(=O)NC2CCCCC2)cc1	10	-2	-10	5	7	-3	7705
O=C(c1cccnc1)N1CCN(c2ccc(Cl)cc2)CC1	1.0	3	-17	3	5	4	10138
O=C(NC1CCCCC1)c1cc2ccccc2cc1O	-0.8	-2	-14	-12	14	-4	3422
O=C(Nc1ccc2c(c1)C(=O)NC2=O)c1ccc(Cl)s1	4.6	4	-3	-3	1	-13	6021
CN(Cc1ccccc1)c1nc2c(c(=O)[nH]c(=O)n2C)n1CCCc1ccccc1	6.7	7	-49	15	2	2	10168
Cc1c(NC(=S)/C=C2\N(C)c3ccccc3C2(C)C)c(=O)n(-c2ccccc2)n1C	-1.0	0	-50	1	-2	3	19375*
CCCCN1C(N)=NC[C@@H]1Cc1ccc(O)cc1	·	13	1	·	·	·	4147
COCC(=O)Nc1cc(OC)ccc1OC	-0.5	6	-1	5	5	-4	?
Cc1ccc(NC(=O)c2cccnc2C(=O)O)nc1	1.8	-10	-10	6	7	19	3483
COc1ccccc1CC(=O)Nc1ccc(F)cc1F	1.5	-5	-5	12	1	2	3865
COC(=O)c1cc(NC(=O)Cn2c(=O)cnc3ccccc32)cc(C(=O)OC)c1	1.6	3	9	·	·	-2	4769
CC(C)Cn1cc(C(=O)NCCCN2CCC(C)CC2)c2c3ccccc3n(C)c2c1=O	-2.2	-7	-10	-4	-13	-1	5431
Fc1ccc(NN=C2CC(c3ccccc3)Oc3ccccc32)c(F)c1 (stereo not given)	-9.5	·	·	2	-6	-19	·
CN(C)CCNC(=O)c1ccc(COCC(F)(F)F)cc1	7.5	-3	-4	10	8	2	10028
CCOC(=O)C(Cc1ccc(NC(=O)/C(=C/c2ccccc2)NC(=O)c2ccccc2)cc1)N1C(=O)c2ccccc2C1=O (stereo not given)	2.2	-8	-13	-4	3	-5	3899
COc1ccc(-c2cc(C(=O)O)no2)cc1	3.9	1	-3	-1	0	2	3907
CCCNC(=O)CN(C)C(=O)c1n[nH]c2ccccc12	5.9	4	-21	0	9	-14	5145
COc1cccc(N2C(CC(=O)O)c3ccc(C=CC(=O)O)cc3S2(=O)=O)c1 (stereo not given)	7.9	·	·	0	0	-3	·
CCOC(=O)Cn1c(=NC(=O)C2CC2)sc2c(C)cc(C)cc21	3.7	6	0	5	11	7	2943
Cc1cccc(C)c1-n1c(C)cc(/C=N\Nc2ccc([N+](=O)[O-])cn2)c1C	·	3	-13	·	·	·	4673
O=C(Nc1ccc(Cc2ccc(NC(=O)N3CCOCC3)cc2)cc1)N1CCOCC1	-6.1	-12	3	-3	3	-5	6067
C=CCn1c(CSc2ccc(C)cc2)n[nH]c1=S	3.4	-5	-12	4	-7	9	5600
Cc1ccc(-c2c(C(=O)NN=Cc3ccc(C)o3)nnn2-c2nonc2N)cc1	7.5	·	·	4	9	1	·
Cc1ccc2c(C)c(C(=O)N3CCC(O)(c4ccccc4)CC3)oc2c1C	9.1	8	-14	6	15	15	3816
CCC(=O)Nc1ccc(S(=O)(=O)Nc2nccs2)cc1	-1.1	-8	-39	18	23	15	3203
CCC(=O)N1CCc2cc(S(=O)(=O)CCC(=O)N3CCCC(C)C3)ccc21 (stereo not given)	4.4	0	-9	-5	-1	0	5649
COc1ccccc1C(=O)NC(CCSC)C(=O)OCC(=O)N1CCCC1=O (stereo not given)	-0.3	·	-2	1	2	2	8600
CCOC(=O)c1ccc(C(=O)NNC(=O)C2C3C=CC(C3)C2C(=O)O)cc1 (stereo not given)	-4.2	·	-3	4	0	-2	?
C/C(=N/NS(=O)(=O)c1ccc(C)cc1C)c1c[nH]c2ccccc12	·	0	-1	·	·	·	5152
Cc1cc(S(=O)(=O)N2CCOCC2)ccc1OCC(=O)Nc1ccc(F)c(Cl)c1	-0.5	3	-3	-9	2	9	5398
COC(=O)C1=C(C)N=c2s/c(=C/c3cccs3)c(=O)n2C1c1ccc(F)cc1 (stereo not given)	·	-4	-39	·	·	·	8611
CNC(=O)CN(c1ccc2c(c1)OCCO2)S(C)(=O)=O	3.6	-18	6	-2	0	0	10102
Cc1cccc(N2CCN(C(=O)c3ccncc3)CC2)c1C	4.0	-3	-27	0	14	3	3944
COc1ccc(OC)c(C2CC(=O)N3CN(c4cccc(Cl)c4)CSC3=C2C#N)c1 (stereo not given)	18	-12	-19	5	5	9	5162
Cc1ccc(CN2CCN(Cc3cccn3-c3ccccn3)CC2CCO)o1 (stereo not given)	7.4	-16	-20	10	-2	13	2535

4 entries from above, ordered by heavy-atom count, smallest number first:
SMILES	RN4220 kill	BJeLR lethal	PrP 5UTR inh	Mtb hypoxia inh	Mtb hypoxia inh growth	Sa ugtP lethal	Bead autofluor
CNC(=O)CN(c1ccc2c(c1)OCCO2)S(C)(=O)=O	3.6	-18	6	-2	0	0	10102
Cc1cccc(N2CCN(C(=O)c3ccncc3)CC2)c1C	4.0	-3	-27	0	14	3	3944
CCC(=O)N1CCc2cc(S(=O)(=O)CCC(=O)N3CCCC(C)C3)ccc21 (stereo not given)	4.4	0	-9	-5	-1	0	5649
Cc1ccc(CN2CCN(Cc3cccn3-c3ccccn3)CC2CCO)o1 (stereo not given)	7.4	-16	-20	10	-2	13	2535

The listing continues:
SMILES	RN4220 kill	BJeLR lethal	PrP 5UTR inh	Mtb hypoxia inh	Mtb hypoxia inh growth	Sa ugtP lethal	Bead autofluor
COc1ccc(N/N=C/c2c(C(=O)O)ccc3ccccc23)cc1	·	7	30	·	·	·	4719
COc1ccc(NC(=O)CN(C)C(=O)c2cc3c(cc2Cl)N2CCCCCC2=NS3(=O)=O)cc1	0.7	1	-1	-5	-2	-4	3934
O=C(NCc1ccco1)C1CCCN(S(=O)(=O)c2ccc(-n3cnnn3)cc2)C1 (stereo not given)	0.9	-3	3	·	·	-5	3814
CCOC(=O)c1c(C)[nH]c(C)c1C(=O)CN1C(=O)NC2(CCCCCC2)C1=O	4.9	·	-3	-5	1	1	3870
CC(C)C(=O)NC(=O)[C@@H]1CCCN1C(=O)/C=C/c1ccccc1	·	-16	-14	·	·	·	4274
Cn1cccc1C=NNC(=O)c1ccc[n+]([O-])c1	5.3	·	·	-3	-3	2	·
Cc1cc(=O)[nH]c(Nc2cccc(C(F)(F)F)c2)n1	5.7	-6	-29	4	-2	-5	·
CCCN1C(=O)c2cc(C(=O)NC3CCCC3)ccc2C1O (stereo not given)	-0.9	-3	-8	·	·	4	5055
COc1ccc(Cn2c(=S)[nH]c3cc(C(=O)NCCCN4CCOCC4)ccc3c2=O)cc1	-1.1	7	4	-2	2	2	5504
COCCn1c(=O)[nH]c2cc(C(=O)N3CCN(c4cccc(C)c4C)CC3)ccc2c1=O	1.0	8	-6	-11	-6	0	3896
CN(C)S(=O)(=O)N1CCN(CC(O)COc2ccc(-c3ccccc3)cc2)CC1 (stereo not given)	6.4	6	-9	3	9	8	3550
Cc1cc(C(=O)Nc2cccc([N+](=O)[O-])c2)c(C)o1	2.4	7	-52	-2	-3	-2	9109
COc1cc(OC)c(OC)cc1CN1CCCC(C(=O)N2CCCC2)C1 (stereo not given)	2.0	3	-39	4	3	6	3367
COC(=O)C1=C(C)Nc2ncnn2C1c1ccc(C)o1 (stereo not given)	-0.7	-5	-23	·	·	12	6918
O=C1c2cccnc2C(O)N1Cc1ccccc1 (stereo not given)	6.1	6	·	3	5	3	11731
Cc1ccc(S(=O)(=O)N2CCCOC2CNC(=O)C(=O)NCc2cccs2)cc1 (stereo not given)	3.7	0	-31	6	6	5	2977
N#Cc1nc(COc2ccccc2)oc1NCCCn1ccnc1	-3.4	·	-16	·	·	2	4133
Brc1ccc(-c2nn3c(-c4ccccn4)nnc3s2)o1	44	-6	-22	2	12	-5	10850
COc1ccc(S(=O)(=O)N(C)C)cc1NC(=O)Cc1ccc(S(=O)(=O)N2CCOCC2)s1	7.2	·	-16	1	-8	19	·
O=C(Nc1cccc(S(=O)(=O)N2CCOCC2)c1)c1ccc2ccccc2n1	-3.7	-4	-27	4	-10	-10	5126
O=C(CSc1ccccc1C(=O)O)Nc1cccc(C(=O)O)c1	3.5	-5	-35	4	9	3	21124*
COC(=O)c1c(NC(=O)C(C)C)sc2c1CCN(Cc1ccccc1)C2	4.5	10	7	-2	3	5	4243
NS(=O)(=O)c1ccc(CCNC(=O)c2cc3ccccc3oc2=O)cc1	2.1	-6	-31	1	-1	12	3631
COc1cc(/C=N/NC(=O)Cc2c[nH]c3ccccc23)cc(OC)c1OC	·	-1	-10	·	·	·	2240
O=c1[nH]cnc2c1c(-c1ccccc1)cn2-c1ccccc1	7.7	5	-9	12	4	-9	5302
Cc1nc(SCC(=O)NC(=O)NCc2ccco2)nc(C)c1C	-3.3	-21	-8	-8	7	10	4497
Cc1ccc(C2=NS(=O)(=O)N(C)C(C(=O)NC3CCCC3)=C2)cc1	-9.0	2	18	-3	-7	-8	5789
CC(C)c1nc2sc3c(=O)n(N)cnc3c2c2c1COC(C)(C)C2	1.3	-5	-8	8	8	-1	2087
O=S(=O)(c1ccc(F)cc1)N1CCN(c2ncccn2)CC1	0.7	-11	-3	21	10	2	4419

An unsorted share of the library; any-hit rate near 4%.
